AID923: qHTS Assay for Allosteric/Competitive Inhibitors of Caspase-1: Spectroscopic Profiling in AFC Spectral Region; compound fluorescence, AFC spectral region (405/520 nm); almost no hit is shown here; Potency, µM (highest dose often 57.5 µM), for the others: top-dose fluorescence increase, hits mostly activators; actives 1.1% (n = 75,000); AID 923, 2007; active = well fitted activation curve with a large enough effect; inconclusive = small, poorly fitted or top-dose-only effect;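 also: potency is read from the fitted curve at half-maximal effect; 0% is about no effect; scaled to a free AFC standard on each plate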
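Compound autofluorescence profiled at 405 nm ex/520 nm em during kinetic caspase 1 run (50 nM enzyme, 5 uM Ac-WEHD-AFC, HEPES pH 7.5, 10 mM DTT). Titration up to 57 uM; baseline from regression intercept, normalized to AFC standard curve.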
TSHR ag: qHTS Assay for Agonists of the Thyroid Stimulating Hormone Receptor; Thyrotropin receptor (Homo sapiens), P16473; HEK293-CNG-TSHR cells (CNG channel as cAMP sensor), membrane potential dye, cAMP; Potency, µM (series often up to 57.1 µM), inactives show top-dose activation, hits mostly activators; actives 0.48% (n = 73,000); AID 926, 2007; active = well fitted activation curve of enough size with the parental cells flat; inconclusive = any curve in the parental cells; inactive = parental cells flat and receptor cells flat or falling; also: potency is read from the fitted curve at half-maximal effect; % of control where 0% means no effect; weak receptor curves with flat parental cells got no call and are not listed
Target sequence (P16473 whole entry, looked up): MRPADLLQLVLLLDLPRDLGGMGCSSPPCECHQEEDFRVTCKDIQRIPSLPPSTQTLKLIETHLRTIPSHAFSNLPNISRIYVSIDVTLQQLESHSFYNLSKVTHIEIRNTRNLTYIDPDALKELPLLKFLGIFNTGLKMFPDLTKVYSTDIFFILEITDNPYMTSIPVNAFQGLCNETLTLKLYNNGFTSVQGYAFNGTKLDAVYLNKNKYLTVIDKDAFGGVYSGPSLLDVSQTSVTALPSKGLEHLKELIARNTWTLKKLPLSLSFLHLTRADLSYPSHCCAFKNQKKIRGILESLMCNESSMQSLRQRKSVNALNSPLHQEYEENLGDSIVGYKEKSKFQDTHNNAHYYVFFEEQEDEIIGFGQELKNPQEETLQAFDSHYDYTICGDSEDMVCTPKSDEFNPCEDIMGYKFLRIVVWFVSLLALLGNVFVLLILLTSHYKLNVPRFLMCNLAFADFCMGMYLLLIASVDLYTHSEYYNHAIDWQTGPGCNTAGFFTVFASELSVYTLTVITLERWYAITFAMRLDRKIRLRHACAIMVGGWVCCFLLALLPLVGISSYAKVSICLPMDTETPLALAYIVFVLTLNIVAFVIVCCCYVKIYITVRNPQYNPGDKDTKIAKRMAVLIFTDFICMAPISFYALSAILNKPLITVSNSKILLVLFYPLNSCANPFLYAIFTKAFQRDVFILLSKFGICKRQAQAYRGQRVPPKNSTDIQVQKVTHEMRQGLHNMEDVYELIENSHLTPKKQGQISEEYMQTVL
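cAMP rise detected as CNG-channel membrane depolarization by fluorescent dye (emission 590 nm), 30 min after compound, following 60 min dye loading containing 100 uM RO 20-1724 at room temperature. Cells: TSHR/CNG HEK 293, with parental CNG HEK 293 as control.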
Resorufin autofl: qHTS Assay for Spectroscopic Profiling in Resorufin Spectral Region; Compound fluorescence, resorufin region 547/598 nm, buffer; active compounds read high; max dye-equivalent concentration, M; actives 0.04% (n = 59,000); AID 588, 2007; active = above 10 nM dye equivalent; inconclusive = 1 to 10 nM; inactive = 1 nM or less; a few of its hits are not listed in these tables; also: highest value over a series up to 38 µM
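Read-out: intrinsic compound fluorescence at ex 547/em 598 nm after 15 min at RT in pH 8.0 Tris (100 mM). Values expressed as resorufin-equivalent concentration from per-plate standard series.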
A647 autofl: qHTS Assay for Spectroscopic Profiling in A647 Spectral Region | Compound fluorescence, A647 channel (570/671 nm), Tris buffer | max dye-equivalent concentration, M | 59,000 tested, under 10 active; active means above 1 µM dye equivalent; inconclusive means 0.1 to 1 µM; inactive means 0.1 µM or less;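 also: values scaled relative to a standard on each plate; highest value over a series up to 38 µM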
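Spectral profiling of library compounds in pH 8.0 Tris: 15 min room-temperature incubation, single ex/em pair (570/671 nm), response normalized to Alexa 647 equivalents.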
A488 autofl: qHTS Assay for Spectroscopic Profiling in A488 Spectral Region. actives 0.1% (n = 59,000). AID 591, 2007. compound autofluorescence, A488 spectral region, dye equivalency; active compounds read high. max dye equivalency, M; active = above 10 nM dye equivalent; inconclusive = 1 to 10 nM; inactive = 1 nM or less; about half of its hits are not listed in these tables;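 also: highest value over a series up to 38 µM; compound alone in buffer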
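Compound autofluorescence was read in 100 mM Tris pH 8.0 after 15 min at room temperature, ex 480 nm/em 540 nm. Intensities were converted to A488 dye-equivalent concentration using an on-plate six-point A488 standard curve.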
* marks the source's active call; other numbers are inactive results; i = inactive; u = inconclusive; x = no result given; & = joins results of further samples; [ ] = remark or other dose.

SMILES	AID923	TSHR ag	Resorufin autofl	A647 autofl	A488 autofl
CCC(=NCc1ccco1)c1c(O)n(Cc2ccccc2)c(=O)[nH]c1=O	2.2%	11%	i	1.9e-09	i
CCCCCCN=C(CC)c1c(O)n(CCCC)c(=O)[nH]c1=O	-2.2%	u	i	1e-08	i
CCCCCn1c(=O)c(C(=O)NCc2ccncc2)c(O)c2ccccc21	1.4%	u	i	2.2e-08	i
COc1ccc(N2CCN(C(CNC(=O)Oc3ccccc3)c3cccnc3)CC2)cc1 (stereo not given)	2.2%	4%	i	3.9e-08	i
COCCn1cc(C(=O)N2CCC3(CC2)OCCO3)c2c3ccccc3n(C)c2c1=O	-0.2%	3%	i	1e-09	i
CCOC(=O)CBr	1.6%	2%	x	x	x
C#CCN1C(=O)C2(C(C#N)=C(N)OC(C)=C2C(=O)OCc2ccccc2)c2ccccc21 (stereo not given)	0.3%	10%	i	5.3e-09	i
O=C(O)C1(c2ccc(Cl)cc2)CCC1	-1.5%	-2%	i	4.1e-08	i
C#CCN1C(C)=C(C(=O)CCO)[C@@H](c2cccc(-n3oo3)c2)C(C(=O)OC)=C1C	-1.0%	u	x	x	x
CCCn1ncc(C(=O)O)c1C	1.5%	0%	i	1.8e-08	i
CN(C)C(=O)CSc1nnc([C@@H](N)Cc2ccccc2)o1	-0.4%	22%	i	1.4e-08	i
CC(=O)OCC1=C(C(=O)[O-])N2C(=O)[C@@H](NC(=O)CCC[C@@H](N)C(=O)[O-])[C@@H]2SC1.[Zn+2]	-1.8%	-23%	i	1e-09	i
CC1(O)C[C@]2(C)N(O)C3CCCC[C@@H]3N2O1 (stereo not given in full)	3.0%	-11%	i	3.9e-08	i
N#Cc1cccc(NC(=O)N2CC3(CCN(C(=O)Oc4ccccc4)CC3)C2)c1	0.8%	6%	i	1.2e-08	i
O=C(O)C(C(=O)O)P(=S)(S)c1ccccc1 (stereo not given)	0.5%[11.5 µM]	4%[11.4 µM]	i	1e-09	i
Cc1ccc2c(c1)CC1(CN2C)C(=O)NC(=O)N(c2ccccc2C)C1=O (stereo not given)	1.3%	12%	i	3.2e-08	i
Cc1nc2cc(C(=O)N3CCC4(CC3)OCCO4)ccc2n1-c1cccc(F)c1	1.9%	x	i	4.6e-09	i
N#Cc1cccc(NC(=O)N2CC[C@@]3(CCCN(C(=O)Oc4ccccc4)C3)C2)c1	1.2%	16%	i	3.2e-08	i
O=C(c1ccccc1)[C@H]1[C@H](c2ccccc2[N+](=O)[O-])N1C1CCCCC1 (stereo not given in full)	1.8%[11.5 µM]	1%[11.4 µM]	i	5.5e-08	i
CCOP(=S)(OCC)SCCSCC	-0.2%	10%	x	x	x
CC[C@H]1CN2CC[C@@H]1C[C@@H]2[C@H](O)c1ccnc2ccccc12	x	1%	i	2.7e-09	i
Cc1cc(O)ccc1Cl	2.8%	-8%	x	x	x
Cc1nnc2n1-c1sc(CCC(=O)N3CCOCC3)cc1C(c1ccccc1Cl)=NC2	1.6%	10%	x	x	x
C[C@@H](C(=O)OC1C[C@H]2CC[C@@H](C1)N2C)c1ccc(Br)cc1 (stereo not given in full)	-0.5%	u	x	x	x
CN1[C@@H]2CC[C@H]1CC(OC1c3ccccc3CCc3ccccc31)C2 (stereo not given in full)	-0.4%[25.7 µM]	18%[25.6 µM]	i	1.3e-09	i
Oc1ccc(Cl)c(Cl)c1Cl	5.7%	-2%	x	x	x
COc1cccc2c1C(=O)c1c(O)c3c(c(O)c1C2=O)C[C@](O)(/C(C)=N\O)C[C@@H]3O[C@H]1C[C@H](N)[C@@H](O)[C@H](C)O1	-1.4%[11.5 µM]	1%[11.4 µM]	1.7e-08M*	1e-09	u
CC1=CC(=O)C2=C(C)C[C@H](O)[C@@H]3[C@@H](OC(=O)[C@H]3C)[C@H]12	x	0%	i	1.5e-09	i
CNC(C)(C)Cc1ccccc1	2.1%	-8%[25.6 µM]	i	1e-09	i
NCC1(c2ccc3c(c2)OCCO3)CCCC1	x	x	i	1e-09	i

Shown with two lines to a compound: part of the list above.
Below each compound: AID923	TSHR ag	Resorufin autofl	A647 autofl	A488 autofl
> Cc1nc2cc(C(=O)N3CCC4(CC3)OCCO4)ccc2n1-c1cccc(F)c1
  1.9%	x	i	4.6e-09	i
> N#Cc1cccc(NC(=O)N2CC[C@@]3(CCCN(C(=O)Oc4ccccc4)C3)C2)c1
  1.2%	16%	i	3.2e-08	i
> O=C(c1ccccc1)[C@H]1[C@H](c2ccccc2[N+](=O)[O-])N1C1CCCCC1 (stereo not given in full)
  1.8%[11.5 µM]	1%[11.4 µM]	i	5.5e-08	i
> CCOP(=S)(OCC)SCCSCC
  -0.2%	10%	x	x	x
> CC[C@H]1CN2CC[C@@H]1C[C@@H]2[C@H](O)c1ccnc2ccccc12
  x	1%	i	2.7e-09	i
> Cc1cc(O)ccc1Cl
  2.8%	-8%	x	x	x
> Cc1nnc2n1-c1sc(CCC(=O)N3CCOCC3)cc1C(c1ccccc1Cl)=NC2
  1.6%	10%	x	x	x
> C[C@@H](C(=O)OC1C[C@H]2CC[C@@H](C1)N2C)c1ccc(Br)cc1 (stereo not given in full)
  -0.5%	u	x	x	x
> CN1[C@@H]2CC[C@H]1CC(OC1c3ccccc3CCc3ccccc31)C2 (stereo not given in full)
  -0.4%[25.7 µM]	18%[25.6 µM]	i	1.3e-09	i
> Oc1ccc(Cl)c(Cl)c1Cl
  5.7%	-2%	x	x	x
> COc1cccc2c1C(=O)c1c(O)c3c(c(O)c1C2=O)C[C@](O)(/C(C)=N\O)C[C@@H]3O[C@H]1C[C@H](N)[C@@H](O)[C@H](C)O1
  -1.4%[11.5 µM]	1%[11.4 µM]	1.7e-08M*	1e-09	u
> CC1=CC(=O)C2=C(C)C[C@H](O)[C@@H]3[C@@H](OC(=O)[C@H]3C)[C@H]12
  x	0%	i	1.5e-09	i
> CNC(C)(C)Cc1ccccc1
  2.1%	-8%[25.6 µM]	i	1e-09	i
> NCC1(c2ccc3c(c2)OCCO3)CCCC1
  x	x	i	1e-09	i

Continuation.
SMILES	AID923	TSHR ag	Resorufin autofl	A647 autofl	A488 autofl
CCOC(=O)C1SC2(C(F)F)CC1(O)c1c(c(OC)c3occc3c1OC)O2 (stereo not given)	-0.1%	8%[11.4 µM]	i	1e-09	i
CCN(CC)c1ccc(N=Cc2c(O)n(-c3ccccc3C)c(=O)[nH]c2=O)cc1	x	x	i	1e-09	i
Cc1ccc(NC(=O)CSc2nnc([C@@H](N)Cc3c[nH]c4ccccc34)o2)c(C)c1	0.7%	-4%	i	2.8e-08	i
COc1ccc(CN2C(=O)CC(=O)NC2=O)cc1	2.9%	3%	i	1e-08	i
Nc1ccncc1	-1.7%	9%	i	1e-09	i
COc1ccc(Br)cc1CN1CCN(CCO)CC1	2.3%	9%	x	x	x
CCCCn1c(O)c(C(C)=Nc2c(C)n(C)n(-c3ccccc3)c2=O)c(=O)[nH]c1=O	-1.3%	2%	i	1e-09	i
CS(=O)c1ccc(-c2nc(-c3ccc(F)cc3)c(-c3ccncc3)[nH]2)cc1 (stereo not given)	-0.5%&7.1%	u	x	x	x
CC[C@H]1CN2CCc3cc(OC)c(OC)cc3[C@H]2C[C@@H]1C[C@H]1NCCc2c1[nH]c1ccc(O)cc21	0.9%[11.5 µM]	-1%[11.4 µM]	i	8.3e-09	i
CC1(C)[C@@H]2CC[C@]1(C)CN(CCC[N+](C)(C)C)C2	-4.3%[11.5 µM]	-3%[11.4 µM]	i	1e-09	i
Cc1cc([P+](=O)O)c(C)n1-c1ccc(Br)cc1	-0.3%	u	i	4.4e-08	i
O=c1c2ccccc2nc(N2CCCC2)n1-c1ccc(Cl)cc1	1.1%	x	i	2.9e-08	i
O=C1NC(=O)C2(Cc3ccccc3N3CCCC32)C(=O)N1c1ccccc1 (stereo not given)	19%	0%	i	1e-09	i
O=C1C2CCCN2C(c2ccccc2)N1c1ccccn1 (stereo not given)	-0.8%	-5%	i	2.2e-09	i
COc1ccc(-n2c(O)c(C(C)=NC3CC3)c(=O)[nH]c2=O)cc1	-0.8%	u	i	1.5e-09	i
C(=NC12CN3CN(CN(C3)C1)C2)c1cccnc1	0.7%	u	i	1e-09	i
NCCP(=O)(O)O	1.3%[11.5 µM]	-1%[11.4 µM]	i	2.5e-08	i
CCc1c(C(=O)OC)ncc2[nH]c3cc(OC)c(OC)cc3c12	9.8%	x	i	2.4e-09	i
N#CCCN	-1.2%	7%	i	8.3e-09	i
Nc1c(Cl)c(Cl)nc(C(=O)O)c1Cl	-1.4%	-1%	x	x	x
O=C(O)C1CN2CCC1CC2 (stereo not given)	1.7%	-3%	x	x	x
O=c1[nH]c(=O)n(CCc2ccccc2)c(O)c1C=NCCCn1ccnc1	x	x	i	1e-09	i
O=C(COc1ccccc1)N1CCN(C/C=C/c2ccccc2)CC1	-2.3%	10%	i	5.3e-09	i
CCC(=NCCC1=CCCCC1)c1c(O)[nH]c(=O)[nH]c1=O	-0.1%	12%	i	3.2e-09	i
CC(=NCc1ccco1)c1c(O)n(C)c(=O)n(C)c1=O	-0.1%	3%	i	8.5e-09	i
Oc1cccc(Cl)c1	2.1%	u	x	x	x
CN(C)C(=O)Nc1cccc(OC(=O)N(C)C)c1	2.0%	0%	i	1e-09	i
CC1CN=C(NCc2ccncc2)S1 (stereo not given)	-0.9%	2%	i	2.9e-08	i
O=S(=O)(c1ccc(Cl)cc1)N1CN2CCN(C2)C1	-0.1%	2%	i	3.9e-08	i
C[C@H]1CC[C@@H]2[C@@H](C)C(=O)O[C@H]3O[C@@]4(C)CC[C@@H]1[C@]32OO4	x	11%	i	8.6e-09	i
COC(=O)c1cncn1C(C)c1ccccc1 (stereo not given)	-0.7%	6%	i	4.5e-08	i
C=CCO[C@@H](Cn1ccnc1)c1ccc(Cl)cc1Cl	3.0%[25.7 µM]	u	i	1e-09	i
O=C(O)CBr	1.2%	u	x	x	x
NC(=O)Nc1cccc(C(F)(F)F)c1	1.0%	1%	i	2.6e-08	i
O=C(CSc1nnc(-c2ccccc2)o1)n1c2c(c3ccccc31)CCCC2	-1.9%	u	i	6.7e-09	i
ClCC[N+]12CC[N+](CCCl)(CC1)C2 (tested in a mixture with another compound)	-3.3%[11.5 µM]	1%[11.4 µM]	i	1e-09	i
c1cc2c(cc1[C@H]1OC[C@H]3[C@@H]1CO[C@H]3c1ccc3c(c1)OCO3)OCO2	x	u	i	2.1e-08	i
c1cc2n(c1)-c1c(ccc3c1OCO3)CNC2c1ccc2c(c1)OCO2 (stereo not given)	-0.5%	u	i	2.1e-08	i
COC(=O)CC1=C(C(=O)OC)C2(C(=O)Nc3c(C)cccc32)C(C#N)=C(N)O1 (stereo not given)	-2.2%	x	i	4.5e-08	i
Fc1ccc(N2CCN(Cc3ccc4c(c3)OCO4)CC2)cc1	1.2%	2%	i	8.1e-09	i
O=c1cccc2n1CC1CC2CN(Cc2c(Cl)cccc2Cl)C1 (stereo not given)	0.1%	x	i	4e-08	i
c1ccc2c(c1)[nH]c1cnccc12	5.2%	x	i	3.7e-08	i
ClC(Cl)(Cl)c1ccccc1	-0.3%&11%	u	x	x	x
Nc1cc(Cl)ccc1Cl	0.8%	u	x	x	x
CCC(=Nc1ccc(OC)cc1OC)c1c(O)n(C)c(=O)n(C)c1=O	-0.7%	x	i	3.1e-08	i
CCN1CCN(Cc2ccc(OC(F)(F)F)cc2)CC1	1.5%	u	i	1e-09	i
N[C@H](CCl)C(=O)O	-3.3%	3%	i	6.1e-08	i
CN1[C@@H]2CC(OC(=O)[C@H](CO)c3ccccc3)C[C@@H]1[C@H]1O[C@H]12 (stereo not given in full)	-0.1%	u	x	x	x
O=S(=O)(c1ccc(Cl)cc1)c1ccc(Cl)cc1	-2.9%&0.0%	9%&-8%	x	x	x

Some of the compounds tested; rates above refer to the full screens.
